Bioassay records: PubChem BioAssay, several laboratories
HNF4A DNA FP: change in binding of human HNF4 alpha to DNA | P41235 | HNF4a-FITC DNA binding, fluorescence polarization, 1 h | activity change, % at 10 µM | hit rate 0.3% among 360,000; in the data active means activity change above about 30%, passing the limit was not always enough;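 further: controls were the assay level and a saturating level of protein; the project sought stronger binding though the title names inhibitors; some compounds called inactive have numbers as strong as hits; positive values seem to mean higher polarization but the record does not say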
Target sequence (P41235 whole entry, looked up): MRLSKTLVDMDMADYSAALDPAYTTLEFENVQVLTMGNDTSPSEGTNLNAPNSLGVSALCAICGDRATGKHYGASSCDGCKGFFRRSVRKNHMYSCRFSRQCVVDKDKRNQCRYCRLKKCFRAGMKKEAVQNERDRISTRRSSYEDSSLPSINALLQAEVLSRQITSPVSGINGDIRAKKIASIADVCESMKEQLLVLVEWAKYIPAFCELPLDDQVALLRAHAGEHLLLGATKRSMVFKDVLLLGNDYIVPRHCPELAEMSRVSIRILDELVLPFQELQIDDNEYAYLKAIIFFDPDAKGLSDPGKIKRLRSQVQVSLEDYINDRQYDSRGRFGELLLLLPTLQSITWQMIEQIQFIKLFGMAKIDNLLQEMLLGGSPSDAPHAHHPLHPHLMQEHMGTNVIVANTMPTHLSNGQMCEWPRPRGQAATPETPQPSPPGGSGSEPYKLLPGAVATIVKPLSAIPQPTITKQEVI
FGF22 binding: shifts melting point of recombinant human FGF22; hit rate 1.5% among 340,000; Q9HCT0; recombinant FGF22 thermal shift, SYPRO orange fluorescence; percent of sucrose octasulfate shift, DMSO zero; calls only at 9.99 µM;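 active means melting point raised past a set limit in the mean and every replicate; three in four hits are not shown here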
Target sequence (Q9HCT0 whole entry, looked up): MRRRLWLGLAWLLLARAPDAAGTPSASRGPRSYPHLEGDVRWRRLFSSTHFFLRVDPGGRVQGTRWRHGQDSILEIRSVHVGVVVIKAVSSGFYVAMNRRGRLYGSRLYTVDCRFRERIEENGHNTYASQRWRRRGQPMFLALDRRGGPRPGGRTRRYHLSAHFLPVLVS
* = called active by the depositor; i = inactive. Some of the compounds tested; count on the stated rates, not on these rows.

The line under a structure holds: HNF4A DNA FP	FGF22 binding
COc1ccc(N2CCN(C(=O)CCCCCn3c(=S)[nH]c4ccc(N5CCOCC5)cc4c3=O)CC2)cc1
→ 1.1	i
CCOC1=C2CN(S(=O)(=O)c3ccc(C)cc3)C(c3ccc(C)cc3)CC2N(S(=O)(=O)c2ccc(C)cc2)C(c2ccccc2)C1 (stereo unspecified)
→ -5.3	i
CC(=O)Nc1ccc(-c2ccnc3c2CC(C)(C(=O)NCc2ccc(F)c(F)c2)O3)cc1 (stereo unspecified)
→ 1.0	i
CCOC(=O)[C@]12CCCC=C1N(Cc1ccco1)C(=O)[C@H](CC(=O)NCCCN1CCCC1=O)C2
→ 0.8	i
COc1ccc(NC(=O)N(C)[C@H]2C[C@H]3c4[nH]c5ccccc5c4CCN3C[C@H]2[C@H](C)O)cc1
→ -0.3	i
C[C@@H]1CN([C@@H](C)CO)S(=O)(=O)c2ccc(Br)cc2O[C@H]1CN(C)Cc1ccccn1
→ -2.2	i
COc1ccc(NC(=S)N(CCc2ccncc2)C(C)C)cc1Cl
→ 8.0	i
CCCNC(=O)c1cc(C2CCCN(C(=O)c3ccc4c(c3)CCO4)C2)on1 (stereo unspecified)
→ 0.1	i
CCc1nc2c(OCc3ccccc3C(=O)OC)cccn2c1N(C)C(=O)c1ccncc1
→ -1.6	i
FC(F)(F)c1ccc(Cl)c(Nc2nnc(-c3ccncc3)s2)c1
→ 1.1	i
CCc1nnc(NC(=O)c2cccc(S(=O)(=O)N3CCN(C)CC3)c2)s1
→ -4.6	i
COc1cccc(C(O)c2ncc(-c3ccccc3OC)[nH]2)c1 (stereo unspecified)
→ -0.8	i
CCCCNc1c(-c2cc3ccccc3o2)nc2nc(C)cc(C)n12
→ 45*	i
CCNC(=O)C1(C)CCCN(Cc2ccc(-c3ccccc3)o2)C1 (stereo unspecified)
→ 1.2	i
CCCc1c(-c2cccc(Cl)c2)ncn1Cc1cccc(-c2ccccc2)c1
→ -0.7	i
CC(=O)NCCNc1nc(NC(C)C)nc2cc(-c3ccccc3)sc12
→ 5.0	i
COc1ccc(OC)c(CN2CCN(C(=O)c3ccc(S(=O)(=O)N4CCCCCC4)cc3)CC2)c1
→ 2.5	i
O=C(Nc1ccccc1)c1ccccc1Br
→ -2.2	i
Cc1cc2nc(-c3ccccc3)c(Cc3cccc(F)c3)n2c(C)c1Br
→ 2.6	i
COc1ccc(-c2sc3ccccc3c2-c2ccc(OC)cc2F)cc1
→ 0.6	i
O=c1c(-c2ccco2)nc2ccccc2n1C(c1ccccn1)c1nc2ccccc2[nH]1 (stereo unspecified)
→ 7.5	i
O=C(N[C@@H]1CC[C@@H](CCNS(=O)(=O)c2ccc(Cl)cc2)O[C@@H]1CO)c1cccnc1
→ 0.3	i
C[C@@H]1CN([C@H](C)CO)C(=O)CCCn2nncc2CO[C@@H]1CN(C)C(=O)Nc1ccc2c(c1)OCO2
→ 1.8	i
COc1ccc(NC(=O)C(c2ccccc2)n2c(=O)c(-c3ccco3)nc3ccccc32)cc1 (stereo unspecified)
→ 12	i
CCOC(=O)C1(C)CCCN1C(=O)c1cccs1 (stereo unspecified)
→ -0.8	i
CCc1nc2ccc(C(=O)Nc3cccc(NS(C)(=O)=O)c3)cn2c1N(C)C(=O)c1cccc(OC)c1
→ -0.3	i
c1ccc(CNc2nc(NCc3ccccc3)c3sccc3n2)cc1
→ 2.5	i
CCCc1c(-c2ccc(Cl)cc2)ncn1Cc1cccc(-c2ccccc2)c1
→ -3.0	i
CCOc1ccc(CN(C)C(=O)c2cccc(S(=O)(=O)Nc3ccccc3OC)c2)cc1OC
→ 0.5	i
Cc1cc(F)ccc1-c1cc(C(=O)NCc2ccco2)[nH]n1
→ 2.5	i
CC1(C(=O)NS(=O)(=O)c2ccc(Cl)s2)CCN1C(=O)C1(c2ccccc2)CCCC1 (stereo unspecified)
→ -4.4	i
Cc1ccccc1-c1cc2nc(NCCN3CCNC3=O)n(C)c(=O)c2s1
→ -1.6	i
CC(=O)c1cccc(-c2cnc3c(NC=O)cc(-c4ccc(N5CCN(C)CC5)cc4)cn23)c1
→ 5.2	i
CCCc1nc2ccc(C(=O)OC)cn2c1Cc1ccccc1C(F)(F)F
→ -1.9	i
COc1ccc(CCNC(=O)Nc2nnc([C@H]3C[C@H](O)[C@@H](CO)O3)s2)cc1OC
→ 3.7	i
C[C@@H]1CN([C@H](C)CO)C(=O)c2c(c3ccccc3n2C)-c2ccccc2CO[C@@H]1CN(C)C(=O)Nc1ccc2c(c1)OCO2
→ 1.8	i
C[C@H](c1ccccc1)N1C[C@H](COCc2ccccc2)Oc2cc(N3CC[C@H](O)C3)ccc2S1(=O)=O
→ 1.5	i
CN(C)CC(=O)N[C@@H]1CC[C@@H](CC(=O)NCCN2CCCCC2)O[C@@H]1CO
→ 1.9	i
COc1ccc(CNC(=O)c2ccc(CS(=O)(=O)c3ccc(OC)cc3)o2)cc1
→ 0.9	i
CCC(c1nnnn1-c1ccc2c(c1)OCCO2)N1CCN(c2ncccn2)CC1 (stereo unspecified)
→ -0.2	i
CC1(c2nc3ccccc3[nH]2)CCC(=O)N1Cc1ccccn1 (stereo unspecified)
→ 8.2	i
C[C@@H]1CCCCO[C@@H](CN(C)S(=O)(=O)c2cn(C)cn2)[C@@H](C)CN([C@H](C)CO)C(=O)c2cc(NC(=O)Nc3ccc(C(F)(F)F)cc3)ccc2O1
→ 0.4	i
CCOC(=O)[C@]12CCCC=C1N(CCC1=CCCCC1)C(=O)[C@H](CC(=O)N1CCCC1)C2
→ -5.3	i
O=C(Nc1ccc(F)cc1)C(c1ccccc1)N1CCN(c2ccncc2)CC1 (stereo unspecified)
→ 4.3	i
O=C(Nc1cccc(C(F)(F)F)c1)Nc1nnc([C@@H]2C[C@H](O)[C@@H](CO)O2)s1
→ 4.0	i
C[C@H](CO)N1C[C@H](C)[C@@H](CN(C)S(=O)(=O)c2cccc(C#N)c2)OCc2cnnn2CCCC1=O
→ -0.3	i
CCN(CC)c1ncnc2c1ncn2[C@H]1CN(C2CCCC2)C[C@@H](CO)O1
→ -8.8	i
COc1cc(C(=O)N2CCOC23CCN(Cc2ccccc2)CC3)cc(OC)c1OC
→ -0.7	i
O=S1(=O)N[C@H](Cc2ccccc2)COc2cc(N3CCC[C@H]3CO)ccc21
→ 2.7	i
Cc1ccc(Cn2cc(CN3CC(N4CCN(CCO)CC4)CS3(=O)=O)nn2)cc1 (stereo unspecified)
→ 0.3	i

Additional structures:
The line under a structure holds: HNF4A DNA FP	FGF22 binding
Cc1ncc(C)c2c([N+](=O)[O-])cccc12
→ 5.3	i
Cc1cc2nc(NC(=O)C3(C)CCCN(C(C)C)C3)[nH]c2cc1C (stereo unspecified)
→ -1.6	i
O=C(NCc1ccccc1)C(c1cc2ccccc2o1)n1c(=O)c(-c2ccco2)nc2ccccc21 (stereo unspecified)
→ 37*	i
C[C@@H]1CN([C@H](C)CO)C(=O)c2cc(Br)cnc2O[C@@H]1CN(C)C(=O)CC1CC1
→ -0.5	i
CS(=O)(=O)Nc1ccc(-c2cncc3nccn23)cc1
→ 2.5	i
O=S1(=O)N[C@H](Cc2ccccc2)COc2cc(N3CCC[C@@H]3CO)ccc21
→ 0.1	i
CCc1nc2c(OCc3ccc(OC)cc3)cccn2c1N(C)C(=O)c1ccncc1
→ 0.1	i
Cc1ccc(OCC(=O)Nc2ccc(S(=O)(=O)NC3=NCCCCC3)cc2)cc1
→ -1.1	i
C[C@@H]1CN([C@@H](C)CO)C(=O)CCCn2nncc2CO[C@@H]1CN(C)S(=O)(=O)c1ccc(C#N)cc1
→ 1.3	i
C[C@@H]1Cn2cnc(C(=O)Nc3ccc(CNC(=O)OC(C)(C)C)cc3)c2C(=O)N1
→ 1.3	i
Cc1cc(N2CCN(C(=O)c3ccoc3)CC2)n2nc(-c3ccccc3)cc2n1
→ -3.6	i
COc1ccc(N/C(N)=N/c2nc(C)cc(C)n2)cc1
→ -1.8	i
COCCNc1nc(NCCCN2CCCC2=O)c2sc(-c3ccccc3)cc2n1
→ 3.3	i
CCOC(=O)c1ccc(-c2ccc3ncnc(N(C)Cc4sccc4C)c3c2)o1
→ -6.3	i
CC(=O)c1cccc(-c2ccc3c(c2)C(C)(Cc2ccccc2C#N)C(=O)N3)c1 (stereo unspecified)
→ 1.9	i
CC(C)NC(=O)C1CCN(Cc2cccc(OCc3ccccc3)c2)CC1
→ -6.0	i
CC1(C(=O)NS(=O)(=O)c2cccs2)CCN1C(=O)Cc1ccc(Cl)cc1Cl (stereo unspecified)
→ -0.3	i
O=c1c2ccccc2nnn1-c1ccccc1[N+](=O)[O-]
→ 2.0	i
CN(C)c1ccc(CNC(=O)CC[C@H]2O[C@@H](n3cnc4c(NC(=O)c5ccccc5)ncnc43)[C@H](O)[C@@H]2O)cc1
→ 1.4	i
COc1ccc(N2CCN(C(=O)C(=O)c3cc(OC)c(OC)c(OC)c3)CC2)cc1
→ -0.5	i
Cc1ccc(F)c(S(=O)(=O)NC(=O)C2(C)CCN2C(=O)COc2ccc(Cl)cc2)c1 (stereo unspecified)
→ 0.9	i
CC1(C)CN(c2ccccc2)C(=O)[C@H]1CC(=O)Nc1ccccc1
→ 0.9	i
O=C(NCc1ccncc1)C1Cc2c(-c3ccccc3Oc3ccccc3)ccnc2O1 (stereo unspecified)
→ -1.7	i
O=C(NCc1ccc(F)c(F)c1)c1ccc(-c2ccc(F)c(F)c2)c2ccoc12
→ 3.1	i
COC(=O)c1c(NC(=O)c2ccccc2C(=O)O)sc2c1CCCC2
→ -3.0	i
CC1(C)OC(=O)C2=C(C[C@@H](CCC(F)(F)F)O[C@H]2c2ccc(F)cc2)O1
→ -2.5	i
CS(=O)(=O)c1ccc(Nc2nc(C(N)Cc3ccc(Cl)cc3)cs2)cc1 (stereo unspecified)
→ 1.2	i
CN1c2ccccc2SC2C(c3ccccc3)=NOC21 (stereo unspecified)
→ -1.1	i
CNC[C@H]1OCc2ccccc2-c2ccccc2C(=O)N([C@@H](C)CO)C[C@H]1C
→ 0.8	i
O=C(Nc1cccc(Cl)c1)c1csc([C@@H]2O[C@H](CO)[C@H](O)[C@H](O)[C@H]2O)n1
→ 4.3	i

5 structures already listed, ordered by length of the SMILES, smallest number first:
The line under a structure holds: HNF4A DNA FP	FGF22 binding
COC(=O)c1c(NC(=O)c2ccccc2C(=O)O)sc2c1CCCC2
→ -3.0	i
CC1(C)CN(c2ccccc2)C(=O)[C@H]1CC(=O)Nc1ccccc1
→ 0.9	i
CS(=O)(=O)c1ccc(Nc2nc(C(N)Cc3ccc(Cl)cc3)cs2)cc1 (stereo unspecified)
→ 1.2	i
CNC[C@H]1OCc2ccccc2-c2ccccc2C(=O)N([C@@H](C)CO)C[C@H]1C
→ 0.8	i
CC1(C)OC(=O)C2=C(C[C@@H](CCC(F)(F)F)O[C@H]2c2ccc(F)cc2)O1
→ -2.5	i

Following part.
The line under a structure holds: HNF4A DNA FP	FGF22 binding
CC(C)[C@@H]1Cc2[nH][nH]c(=O)c2[C@H](C)O1
→ 0.8	i
CCc1nc2ccc(C(=O)N(CC)CCN(C)C)cn2c1N(CC)C(=O)NCCc1ccccc1
→ -1.6	i
COc1ccc(S(=O)(=O)NC(=O)C2(C)CCN2C(=O)CC2CCCC2)cc1 (stereo unspecified)
→ -1.2	i
NC(Cc1ccc(F)cc1)c1csc(NC(=O)NC(c2ccccc2)c2ccccc2)n1 (stereo unspecified)
→ -1.7	i
CC(C)NC(=O)c1cc(C2CCCCN2C(=O)c2ccc(Cl)cc2)on1 (stereo unspecified)
→ 0.8	i
CCCCc1c(Cc2cccc(F)c2)ncn1CCc1ccccc1OC
→ -1.3	i
C[C@H](CO)N1C[C@H](C)[C@@H](CN(C)S(=O)(=O)c2ccc(Oc3ccccc3)nc2)OCc2cn(nn2)CCCC1=O
→ -0.2	i
O=c1[nH]cnc2c1nnn2C1OC(CO)C(O)C1O (stereo unspecified)
→ 2.6	i
CC(C)(C)S(=O)N1Cc2cc(C(=O)N3CCc4ccccc4C3)nc(-c3cccc(-c4cccnc4)c3)c2[C@@H]1CCO (stereo partly specified)
→ 6.8	i
O=c1[nH][nH]c2c1[C@H](c1ccc(Cl)cc1)O[C@H](C1CC1)C2
→ -4.2	i
CNC(=O)C1(C)CCN1C(=O)c1ccccc1CCc1ccccc1 (stereo unspecified)
→ 4.6	i
CCNC(=O)N(C)c1c(CC)nc2ccc(C(=O)Nc3cccc(OCC(=O)N(C)C)c3)cn12
→ 1.3	i
Cc1ccc(S(=O)(=O)C[C@@H]2OC[C@H](C)N2S(=O)(=O)c2ccc(C)cc2)cc1
→ -0.3	i
COc1cc(NC(=O)CCn2c(=S)[nH]c3ccccc3c2=O)cc(OC)c1OC
→ 19	i
COCCNC(=S)Nc1ccc(N2CCOCC2)c(S(=O)(=O)Nc2ccc(Cl)cc2)c1
→ 1.3	i
Cc1ccc(CN2CC(N3CCC(Cc4ccccc4)CC3)CS2(=O)=O)cc1 (stereo unspecified)
→ 2.2	i
Cc1ccc(-c2ccccc2C2=CC(=O)CC(C)(C)C2=O)cc1
→ 0.9	i
COCCN1C(=O)CCC1(C)C(=O)Nc1ccc2ccccc2c1 (stereo unspecified)
→ -2.1	i
CCOC(=O)C1CCCN(C(=O)c2ccncc2)CC1 (stereo unspecified)
→ 2.3	i
COC(=O)C1=COC(OC2OC(CO)C(O)C(O)C2O)C2C(C)CC(=O)C12 (stereo unspecified)
→ -8.7	i
COc1ccc(CC(N)c2csc(Nc3ccc(S(C)(=O)=O)cc3)n2)cc1 (stereo unspecified)
→ 0.9	i
CC1=C(C(=O)N(C(C)C)C(C)C)CC(CC(=O)NC2CCCC2)C(=O)N1Cc1ccc(F)cc1 (stereo unspecified)
→ -1.0	i
CC1(C)CC(NC(=O)c2ccc(F)cc2)CC(C)(C)N1
→ 1.2	i
